Source: PubChem BioAssay
VACV Venus inh: vaccinia inhibition (Venus reporter). AID 720580. Potency, µM (series often up to 36.5 µM), inactives show at the top dose activity change, negative = inhibition, usual class: inhibitors. actives 0.46% (n = 330,000). Vaccinia virus Venus reporter expression, fluorescence; active means well fitted inhibition curve with a large enough effect; inconclusive means small, poorly fitted or top-dose-only effect; inactive means no such curve, though single readings can be large or run the other way; tested in A549 cells; further: nearly all actives have a fitted effect of over 30% in size; inactives centre near -10
Vaccinia mCherry: vaccinia inhibition (mCherry reporter). actives 0.63% (n = 310,000). AID 720579. Potency, µM (highest dose often 36.5 µM), without a hit: top-dose activity change, negative = inhibition, hits mostly inhibitors. Vaccinia virus mCherry reporter infection, fluorescence; about a quarter of the inactives have no number; active = well fitted inhibition curve with a large enough effect; inconclusive = small, poorly fitted or top-dose-only effect; inactive = no such curve, though single readings can be large or run the other way; tested in A549 cells; further: nearly all actives have a fitted effect of over 35% in size; inactives centre near -10
The depositor's hits bear a star; i = inactive; ? = inconclusive; / = not tested or not shown; & = joins results of further samples; [ ] = dose if it differs, or a comment. On the % scale 0 is the no-effect control and ±100 the full control effect; potency means the concentration at half of the fitted maximal effect.

cpd	smiles	VACV Venus inh	Vaccinia mCherry
1	CCN(CC)C(=O)Nc1ccc(Br)cc1	-4.0%	12.6%
2	CCNc1nc(NCC)n2c(SCC(=O)Nc3ccccc3Cl)nnc2n1	-11.2%	-25.2%
3	NC(=O)COc1ccc(/C=N\NC(=O)c2ccc(-c3ccccc3)cc2)cc1	-6.5%	-6.7%
4	CN(c1ccc(C(=O)NC2CC2)cc1)S(=O)(=O)c1ccccc1	-6.7%	-12.0%
5	COc1ccc(NC(=O)c2cccc(S(=O)(=O)NCc3ccco3)c2)c(OC)c1	-0.7%	-16.0%
6	COc1cc(OC)c(C2Nc3c(C)cccc3-c3cc(C)nn32)cc1OC (configuration not stated)	-15.6%	-16.0%
7	COc1ccc(/C=C2\CCc3ccccc3C2=O)cc1OC	?	7.94µM*
8	COc1cc(C)ccc1OCCCCOc1ccccc1C(C)=O	-4.4%	-13.1%
9	COc1ccc2nc3c(cc2c1)c(NC(=O)c1cccs1)nn3CC(C)C	?	/
10	CCc1nc2ccc(C(=O)NCc3ccccc3OC)cn2c1N(CC)CCN(C)C	-6.4%	i
11	CCN(CCNC(=O)CCCn1nc(C)n2c(cc3sccc32)c1=O)c1ccccc1	-11.9%	27.4%
12	Cc1nn(C)c(C)c1/C=N/O	-5.7%	/
13	CCCCC(=O)N1C/C=C\C(c2ccc(OC)cc2)N(Cc2ccc(F)cc2)C(=O)[C@H]1Cc1ccccc1 (some centres not stated)	?	?
14	CC1CCCCN1C(=O)CN(C)S(=O)(=O)c1cccc2nsnc12 (configuration not stated)	-14.1%	-1.5%
15	CCn1c(SCC(=O)NC2CC2)nnc1-c1ccc(OC)cc1	-3.5%	i
16	Nc1[nH]n(-c2ccccc2)c(=O)c1N=Nc1ccccc1	-5.1%	?
17	COc1ccc(CCNC(=O)C(=O)c2cn(CC(=O)N3CCCC3)c3ccccc23)cc1	-3.5%	19.3%
18	COc1ccc(/C=C/C(=O)c2cc3cccc(OC)c3oc2=O)cc1	1.8%	5.4%
19	O=C(NCCSCc1c(F)cccc1Cl)Nc1ccccc1	-5.0%	-14.0%
20	c1ccc(-n2ncc3c2ncn2nc(-c4ccco4)nc32)cc1	-18.6%	-10.3%
21	COc1cc(NC(=O)c2sc3ncn(CC(=O)N4CCCCC4C)c(=O)c3c2C)cc(OC)c1OC (configuration not stated)	-8.6%	i
22	Cc1ccc(CNC(=O)c2ccc(Cn3c(=O)c4ccccc4n(CC(=O)Nc4c(C)cc(C)cc4C)c3=O)cc2)cc1	?	?
23	CCN(CC)S(=O)(=O)c1cc(C(=O)OCC(=O)Nc2ccc(-c3nc4ccc(C)cc4s3)cc2)ccc1F	-4.7%	i
24	Cc1ccc(C(C(=O)NC2CCCCC2)N2CCCC2)cc1 (configuration not stated)	-1.0%	-14.7%
25	CCC(=O)Nc1sc2c(c1C#N)CCCCC2	?	/
26	O=C(Nc1ccncc1)c1cc(F)cc(F)c1	-18.3%	-22.9%
27	Cc1cccc(N2CCN(S(=O)(=O)c3c(C)nc4scc(C)n4c3=O)CC2C)c1 (configuration not stated)	-14.1%&-13.2%	-17.3%
28	Cc1ccc(Cn2c(C(=O)O)c(CNCc3ccc(C)o3)c3ccc(C)cc32)cc1	-7.4%	-11.9%
29	c1ccc(-c2cn3c(n2)CCC3)cc1	23.0%	/
30	O=C(NCc1ccccc1)c1nc[nH]c1C(=O)N1CCN(c2ccccc2)CC1	-4.9%	-10.4%
31	CC1(C)CC(=O)C(C=NC2CC(C)(C)NC(C)(C)C2)=C(O)C1	-13.8%	-17.7%
32	O=C(CN1CCN(Cc2ccc(Cl)cc2)CC1)N1CCc2ccccc21	-14.6%	-17.8%
33	COc1cc(NC(=O)COc2ccc(Cl)cc2)ccc1-c1cc2ccccc2oc1=O	-27.0%	?
34	CCOc1ccc(CN(CCc2ccc3c(c2)OCO3)Cc2ccc(OC)c(Br)c2)cc1	-2.2%[7.34 µM]	-7.0%[7.34 µM]
35	Cn1c(=O)c([N+](=O)[O-])c(NCC(O)c2ccccc2)c2ccccc21 (configuration not stated)	-22.0%	-11.1%
36	COC(=O)c1ccc(NC(=O)CN(CCc2ccccc2)S(=O)(=O)c2ccc(OC)cc2)cc1	-13.5%	-17.1%
37	Cc1cc(OC(F)F)ccc1NC(=O)Nc1ccc([N+](=O)[O-])cc1	?	?
38	COc1ccc(C)cc1NC(=O)CCNS(=O)(=O)c1cccc(C(F)(F)F)c1	-23.2%	-0.7%
39	CC(=O)NCCNc1nc2cc(-c3cc(F)ccc3C)sc2c(=O)n1C	-10.6%	19.2%
40	O=C(Cc1ccccc1)Nc1ccc2oc(-c3ccncc3)nc2c1	-1.1%	/
41	O=C(COc1ccc(S(=O)(=O)Nc2ccccc2)cc1)NCc1ccccn1	-0.6%	-11.9%
42	CC(C)c1ccc(NC(=S)NN2C(C)CCCC2C)cc1 (configuration not stated)	-19.2%	-7.7%
43	CCOC(=O)CNC(=O)CSc1nc(N(C)C)nc(N2CCOCC2)n1	-3.4%	/
44	CN1C(=O)C(N=Nc2ccccc2C(=O)O)N(C)C1=S (configuration not stated)	6.3%	1.7%
45	O=C(Cn1nnc2ccccc2c1=O)Nc1cc(C(F)(F)F)ccc1N1CCOCC1	-11.2%	/
46	COc1ccc(Oc2nc3c(c(=O)n(C)c(=O)n3C)n2Cc2cccc(OC)c2)cc1	-28.4%	/
47	COc1ccc2c(C)cc(Sc3nnnn3-c3ccccc3)nc2c1	-12.9%	?
48	COCCN(C(=O)COC(=O)c1ccccc1NCc1ccco1)c1c(N)n(Cc2ccccc2)c(=O)[nH]c1=O	-10.9%	-2.4%
49	Cc1noc(/C=C/c2ccco2)c1S(=O)(=O)N1CCC(C(=O)Nc2ccc(F)cc2F)CC1	-5.7%	-13.5%
50	O=C(NCCNC(=O)c1cc(F)cc(F)c1)c1cc(F)cc(F)c1	-8.9%	-0.7%
51	Cc1ccc(NC(=O)CSc2nnc(-c3cccnc3)s2)cc1	-12.6%	-14.8%
52	CC(=O)c1c(C)[nH]c(C(=O)CSc2nnc(-c3ccco3)o2)c1C	2.5%	-10.1%
53	CC1(C)CNc2cc([N+](=O)[O-])ccc2S1	-0.5%	-13.8%
54	CCC1=C2CC[C@H]3C(=O)N(C)C(=O)[C@H]3[C@H]2[C@@]2(Cc3ccccc3)C(=NCC(=O)OC)OC(=O)N2C1=O	-9.0%	i
55	OCC1OCOC2C(CO)OCOC12 (configuration not stated)	6.3%	1.2%
56	N#CC(C#N)=C1C=CC=CN1/C(=C\c1ccco1)C(=O)c1ccc(-c2ccccc2)cc1	-15.4%	?
57	COc1ccc(/C=C\C(=O)Oc2cccc(/C=N/NC(=O)Cc3ccc(OC)c(OC)c3)c2)cc1	-11.1%	-22.0%
58	COc1ccc(NC(=O)c2cccc([N+](=O)[O-])c2)cc1	-8.2%	i
59	Cc1ccc2c(c1C)C(=O)C(=O)N2	-4.1%	-14.1%
60	Cn1cc([N+](=O)[O-])c(C(=O)NCc2cc3ccccc3[nH]2)n1	-15.1%	-9.2%

(further entries)
cpd	smiles	VACV Venus inh	Vaccinia mCherry
61	CCC(=O)N1c2ccccc2CC1C(=O)N1CCN(c2cccc(Cl)c2)CC1 (configuration not stated)	14.7%	-5.1%
62	Cc1ccc(OCCC(=O)OCC(=O)NC(=O)NC2CCCCC2)cc1	-15.0%	-15.8%
63	CCOc1ccc(-c2nonc2NC(=O)c2oc3c(C)c(C)ccc3c2C)cc1OCC	-14.8%	-14.1%
64	Cc1cc(C)cc(NC(=O)Cn2nnc(C(=O)Nc3cc(C)cc(C)c3)c2N)c1	-18.2%	-11.1%
65	CC(=O)n1cc([C@H]2C=C(C(N)=O)O[C@@H](OCc3ccc(CO)cc3)C2)c2ccccc21	-6.4%	i
66	COc1cccc(C(=O)N2CCc3c(C(=O)NC(C)c4ccco4)c(OC)cc(=O)n3CC2)c1OC (configuration not stated)	8.2%	-3.9%
67	Clc1nc(-c2ccccc2)c2ccccc2n1	-4.9%	-12.2%
68	Cc1cc(C)c(C2=CSC3=NS(=O)(=O)CCN23)c(C)c1	-14.9%	-4.5%
69	Cc1ccc(S(=O)(=O)NN2C(=O)c3ccccc3NC2c2ccccn2)cc1 (configuration not stated)	-7.3%	-3.6%
70	CSc1cccc(NC(=O)CN(c2cc(C)ccc2C)S(C)(=O)=O)c1	-27.4%	-12.2%
71	CSc1ccc(CN2CCCC(CNC(=O)c3ccc(F)cc3)C2)cc1 (configuration not stated)	-7.7%	-18.6%
72	CCCNC(=O)c1cc(C2CCCCN2C(=O)c2ccc3c(c2)CCO3)on1 (configuration not stated)	-1.2%	3.9%
73	COc1ccc(OC)c(NC(=O)c2cccnc2Sc2cc(C)ccc2C)c1	-23.7%	-4.7%
74	CCN(CC)CCC(c1ccc(N(C)C)cc1)c1c(OC)cc(OC)c2c(-c3ccccc3)cc(=O)oc12 (configuration not stated)	?	?
75	COc1ccccc1NS(=O)(=O)c1ccc(C(=O)NCC(c2ccccc2OC)N(C)C)cc1 (configuration not stated)	-18.3%	-12.4%
76	COc1cccc(-c2sc3ccc(OC)cc3c2C#CCC(C)O)c1 (configuration not stated)	?	-18.6%
77	COc1ccc(C(=O)COC(=O)c2cc(=O)[nH]c3ccccc23)c(OC)c1	-14.6%	-19.3%
78	CC1CCN(C(=O)COC(=O)Cc2c[nH]c3ccccc23)CC1	-20.4%	-0.1%
79	Cc1cccc(N(Cc2ccccc2)C(=O)c2ccccc2F)c1	-0.5%	?
80	Cc1ccc(CNC(=O)c2c(-c3cccc(Br)c3)noc2C)o1	-16.4%	-10.3%

Values by screen from the entries so far:
VACV Venus inh for entries 75–80 → -18.3%, ?, -14.6%, -20.4%, -0.5%, -16.4%
Vaccinia mCherry for entries 75–80 → -12.4%, -18.6%, -19.3%, -0.1%, ?, -10.3%

Structural class, the entries above with a COOH group (2)
cpd	smiles	VACV Venus inh	Vaccinia mCherry
28	Cc1ccc(Cn2c(C(=O)O)c(CNCc3ccc(C)o3)c3ccc(C)cc32)cc1	-7.4%	-11.9%
44	CN1C(=O)C(N=Nc2ccccc2C(=O)O)N(C)C1=S (configuration not stated)	6.3%	1.7%

(continued)
cpd	smiles	VACV Venus inh	Vaccinia mCherry
81	C=CCNC(=O)c1ccccc1NC(=O)c1ccccc1N(C)S(C)(=O)=O	-4.3%	-23.4%
82	Clc1ccc(Nc2nc(NCc3ccco3)nc3nccnc23)cc1	-13.4%	-2.9%
83	O=C(Nc1ccc2c(c1)OCCO2)C1c2ccccc2OCC(=O)N1Cc1ccccn1 (configuration not stated)	7.3%	9.6%
84	Cc1nn(C)c(C(=O)N/N=C/c2cc3c(cc2Br)OCO3)c1Br	-5.4%	-13.5%
85	O=C(Nc1cccc(Cl)c1)OCCN1CCN(Cc2ccccc2)CCC1=O	-9.5%	?
86	CCc1ccc(C(=O)NC2=NC(c3cc(OC)ccc3OC)CC(=O)N2)cc1 (configuration not stated)	-15.8%	-20.3%
87	CC(Oc1ccccc1Cl)C(=O)N(Cc1ccco1)C1CCS(=O)(=O)C1 (configuration not stated)	1.9%	-17.9%
88	CC(C)NC(=O)Nc1cccc2c1O[C@H](CN(C)S(=O)(=O)c1cccs1)[C@@H](C)CN([C@H](C)CO)C2=O	-20.3%	-0.6%
89	COc1ccc(OC)c(/C=C/C(=O)OCC(=O)N2CCCCC2)c1	-5.7%	i
90	CCOC(=O)CN1C(=O)/C(=C/c2ccc(Cl)cc2)Oc2ccccc21	1.2%	?
91	O=C(CNS(=O)(=O)c1cccs1)N1CCN(c2ccccn2)CC1	-45.1%	/
92	Cc1c(Cl)cccc1NC(=S)NCc1ccc(Cl)cc1	-10.5%	-23.2%
93	CCOc1ccc(-c2ccc(SCC(=O)Nc3nnc(CC)s3)nn2)cc1	0.6%	-14.7%
94	CCCCC(=O)NN(C)c1nc(-c2ccccc2)nnc1C(F)(F)F	-16.2%	-13.9%
95	COC(=O)C1=[N+]([O-])OC(C(=O)OC)C1c1c[nH]c2ccccc12 (configuration not stated)	-6.5%	-9.6%
96	O=C(O/N=C1/CCSc2ccccc21)c1ccccc1	-13.1%	/
97	Cc1ccc(CN2CCN(Cc3cccn3-c3ccc(Cl)cn3)CC2CCO)o1 (configuration not stated)	1.3%	i
98	O=C(Nc1ccc2nc(SCC(=O)N3CCCC3)sc2c1)c1ccc(Br)cc1	-24.1%	-21.5%
99	O=C(OCC(=O)N1CCNC1=O)c1ccccc1Cl	0.0%	i
100	O=C(NCCO)/C(=C/c1cccc([N+](=O)[O-])c1)NC(=O)c1ccco1	-2.1%	0.0%
101	CC(=O)n1nc(-c2ccco2)nc1N	-2.4%	-13.9%
102	CC(=O)c1ccc(NC(=O)CCNC(=O)c2ccccc2Cl)cc1	-9.9%	-28.7%
103	CCn1c2ccccc2c2nnc(SCC(=O)N3CC(C)OC(C)C3)nc21 (configuration not stated)	?	i
104	COc1ccc(C(=O)NCC2Cc3cc(C)cc(-c4cc(C(C)=O)ccc4F)c3O2)c(OC)c1OC (configuration not stated)	-10.7%	i
105	COc1cc([C@H]2c3[nH]c4ccccc4c3C[C@H]3C(=O)N4[C@@H](c5cc(OC)c(OC)c(OC)c5)c5[nH]c6ccccc6c5C[C@H]4C(=O)N23)cc(OC)c1OC	?	?
106	Cc1cccn2c(=O)c3cc(C#N)c(=N)n(Cc4cccnc4)c3nc12	-17.1%	-4.6%
107	O=C(NNC(=O)C12CC3CC(CC(C3)C1)C2)[C@@H]1C[C@H]1c1ccccc1	-24.8%	-22.1%
